Compound activity deposited in PubChem BioAssay by ICCB-Longwood Screening Facility, Harvard Medical School.
Ba CapD inh – Bacillus anthracis CapD inhibitors, primary screen, biochemical, fluorescence intensity | AID 492967, 2010 | 140,000 tested, 0.23% active | purified CapD enzyme, fluorescence intensity read-out; hits give low values; some hits fall short of the stated cut | z-score (concentration not given with the values);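 active = z-score under -4 in either of two replicates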;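 also: stock transfer was 100 nL into about 40 µL; score is relative to mean and spread of the plate; one replicate is shown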
AID504770 – growth inhibition of E. coli YBA685, primary screen, V. cholerae RctB inhibitors; E. coli YBA685 rctB-dependent plasmid, OD600 growth, 3 h; hits give low values; z-score (test concentration not listed); 130,000 tested, 0.27% active;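 active = z-score under -2 on both plates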;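 also: wells of about 30 µL received 100 nL stock; score is relative to mean and SD of the test wells; the first replicate is given; strong numbers were not always called active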
* hit, by the source's call; i = inactive; x = not tested or not shown.

SMILES	Ba CapD inh	AID504770
O=C(C1CCCC1)N(c1ccccc1)C1C=CS(=O)(=O)C1 (stereo unspecified)	-0.41	-0.9
Cc1ccc(S(=O)(=O)/N=C2/C=C(Sc3ncn[nH]3)C(=O)c3ccccc32)cc1	-2.7	-0.5
N#Cc1ccc(CN2CCCc3ccccc32)cc1	0.9	-0.95
CCOc1ccc2c(c1)NC(C)(C)c1ssc(=Nc3ccccc3)c1-2	-0.8	x
N#CC(C(=O)CN1CCN(Cc2ccccc2)CC1)c1ccccc1 (stereo unspecified)	-0.49	-1
O=C(O)CN1C(=O)SC(CC(=O)Nc2nccs2)C1=O (stereo unspecified)	0.03	-0.7
CCN1C(=O)c2ccc(C(=O)Nc3cc(C)on3)cc2C1=O	0.68	-0.15
Cn1c(=O)c2c(nc(NCc3ccccc3)n2Cc2ccc(Cl)cc2Cl)n(C)c1=O	-0.33	x
CCOC(=O)c1nc2ccccc2n(C(C)=O)c1=O	-6.6*	-0.25
O=C(Oc1cc2sc3ccccc3[nH]c2c2c(=O)c3ccccc3c(=O)c12)c1ccccc1	0.12	x
COc1ccc(-c2cc3nnc(-c4ccccc4)nc3s2)cc1	-0.66	0.05
CCOC(=O)c1sc2nc(C)n(CC(=O)Nc3ccc(F)c(Cl)c3)c(=O)c2c1C	0.74	x
COc1ccc(CN2CCN(CCOC(=O)N3CCN(c4sc(S(N)(=O)=O)cc4[N+](=O)[O-])CC3)CC2)cc1Br	-0.52	x
CN(C(=O)CSc1nnc(-c2ccccc2)n1-c1ccccc1)C1CCS(=O)(=O)C1 (stereo unspecified)	x	-0.3
CCOC(=O)c1nnc2ccnn2c1N	-1.3	-0.55
C=CCSc1nc(Oc2ccccc2C)c2sc3ccccc3c2n1	-0.065	x
COc1cccc(-c2nc(CS(=O)CC(=O)O)c(C)o2)c1 (stereo unspecified)	2.3	-0.6
COc1ccc(CN=C(N)N)cc1	-0.35	-0.15
COc1ccc(CCNC(=O)CCn2c(SCC(=O)Nc3ccccc3Cl)nc3ccccc3c2=O)cc1OC	0.065	x
COc1cnc(-c2ccccn2)nc1-c1cccc(C(F)(F)F)c1	-0.3	x
O=C(NCCN1CCN(S(=O)(=O)c2ccccc2)CC1)C(=O)Nc1ccccc1	-0.1	x
COc1ccc(/C=C2\SC(N(C)c3ccc(Cl)cc3)=NC2=O)c(OC)c1OC	-0.49	-0.55
O=C(Nc1cccc2[nH]ccc12)C1CCCCC1	-0.22	0.05
COC(=O)CCC(=O)N1CCN(C/C=C/c2ccccc2)CC1	-0.9	x
CN(C)C(=O)Oc1cc(OC(=O)N(C)C)cc(C(O)CNC(C)(C)C)c1 (stereo unspecified)	8	x
NC(N)=NS(=O)(=O)c1ccc(NC(=S)NC(=O)/C=C/c2ccc(F)cc2)cc1	-0.2	1.4
COc1ccccc1Nc1nc2c(s1)CCCC2	-0.45	-1.2
O=c1cc(-c2cccs2)oc2ccc(O)cc12	0.24	0.5
COc1ccc(OC)c(/C=N/N=C2\SCC(=O)N2Cc2ccco2)c1	0.36	-0.4
O=C(Nc1nnc(COc2ccc(Br)cc2)s1)C12CC3CC(CC(C3)C1)C2	-0.04	x
O=C(O)C(=Cc1nc(-c2ccccc2)n2ccccc12)C(=O)O	x	-0.7
CCn1c(=O)c2ccccc2n(CC)c1=O	9.6	1.5
OCN(Cc1ccccc1)Cc1ccccc1	0.36	-0.5
CCC(=O)Nc1cccc(C(=O)N/N=C/c2c(F)cccc2F)c1	0.17	x
CC1COC2=C(N3CCN(C)CC3)C(F)=CC3C(=O)C(C(=O)O)=CN1C23 (stereo unspecified)	x	-6.4*
Cn1ccnc1SCC(=O)c1ccccc1	9.7	0.25
Cc1cc(C)c2cc(C(=O)N(C)c3ccc(F)cc3F)[nH]c2c1	0.33	-0.1
C/C(=C/C(=O)c1c(O)c2ccccc2n(C)c1=O)Nc1ccc(N)cc1	-0.83	-0.6
O=C(Cc1ccccc1)NCCn1ccc2ccccc21	-0.085	-0.1
CN(C)C(=O)N1CCC(C(=O)c2ccc(Cl)cc2)CC1	0.055	-1.4

Shown field by field: part of the list above
SMILES: OCN(Cc1ccccc1)Cc1ccccc1
- Ba CapD inh: 0.36
- AID504770: -0.5

SMILES: O=C(O)C(=Cc1nc(-c2ccccc2)n2ccccc12)C(=O)O
- Ba CapD inh: x
- AID504770: -0.7

SMILES: Cn1ccnc1SCC(=O)c1ccccc1
- Ba CapD inh: 9.7
- AID504770: 0.25

SMILES: Cc1cc(C)c2cc(C(=O)N(C)c3ccc(F)cc3F)[nH]c2c1
- Ba CapD inh: 0.33
- AID504770: -0.1

(continued)
SMILES	Ba CapD inh	AID504770
COc1cc(Br)c(O)c(C=Nc2ccc(C(F)(F)F)cc2)c1	-0.47	x
Nc1ccccc1-c1nnc(-c2ccccc2)c(=O)[nH]1	x	-0.15
C(=N\N1CCCCC1)/c1cn(-c2ccccc2)nc1-c1cccs1	x	1.1
O=C(CNC(=O)c1ccc(Br)cc1)N/N=C/c1ccc([N+](=O)[O-])s1	-1.2	x
N#Cc1ccccc1OCC(O)CS(=O)(=O)c1ccc(Cl)cc1 (stereo unspecified)	0.2	x
CCOc1ccc(N=c2ccc3ccccc3n2C)cc1	0.99	-0.55
COc1ccc(S(=O)(=O)N2CCCC(C(=O)N3CCN(C)CC3)C2)cc1OC (stereo unspecified)	x	-0.95
O=C1/C(=C/c2ccc(Cl)cc2)CCc2ccccc21	-0.44	x
CC(=O)O/N=C/c1[nH]ncc1Br	0.94	0.1
CC(=O)c1ccc(N2CCN(c3ncnc4c3cnn4-c3ccc(Cl)cc3)CC2)cc1	0.24	x
CCOC(=O)c1c(NC(=O)c2ccccc2)sc2c1CCN(Cc1ccccc1)C2	3.5	x
Cc1cc(C)nc(NNC(=S)NCc2ccc3c(c2)OCO3)n1	x	-0.5
CC(C)(C)c1nc(N)sc1Br	-0.55	x
COC(=O)C1=C(N)OC2=C(C(=O)CC(c3ccccc3)C2)C1c1ccc2c(c1)OCO2 (stereo unspecified)	-0.49	x
CCSCCOC(=O)C1=C(C)NC2=C(C(=O)CC(c3cccs3)C2)C1c1cc(OC)c(OC)c(OC)c1 (stereo unspecified)	16	x
NC(=O)C1CCN(C(=O)COc2ccc3ccccc3c2)CC1	x	0.45
COC(=O)CSc1nnc(-c2ccc(Cl)cc2Cl)o1	i	0.05
CCC1CCCCN1C(=O)c1cccs1 (stereo unspecified)	-0.045	-0.85
COc1ccc2nc(SCC(=O)c3ccc(O)c(O)c3)[nH]c2c1	-0.98	-0.2
O=S(=O)(Nc1ccccc1F)c1ccc2nc(-c3ccccc3)[nH]c2c1	0.015	-1.2

Some of the entries above, set out differently.
| Molecule | Ba CapD inh | AID504770 |
| --- | --- | --- |
| CCOC(=O)c1nnc2ccnn2c1N | -1.3 | -0.55 |
| C=CCSc1nc(Oc2ccccc2C)c2sc3ccccc3c2n1 | -0.065 | x |

Further results.
SMILES	Ba CapD inh	AID504770
Cc1ccn2cc(-c3cccc(NC(=O)c4sc(-c5ccccc5)nc4C)c3)nc2c1	-0.69	x
C#CCSc1nnc(-c2ccccc2)o1	-0.4	-1.1
Cc1cc(C)nc(NS(=O)(=O)c2ccc(NC(=O)/C=C/c3cccc4ccccc34)cc2)n1	1.3	x
COC(=O)/C(C#N)=C1\C=Cc2ccccc2N1	-2	-0.6
COc1ccc(OC)c2c(C)cc(C)nc12	1.2	0.55
Nc1ccc2oc(Cc3ccc(Cl)cc3)nc2c1	x	-0.65
O=C(Nc1nc2ccccc2s1)c1cc2c(=O)oc3ccccc3c2s1	2	x
O=c1c2cccc3c2c(nn1CN1CCCCC1)-c1ccccc1-3	-0.43	0.65
CC1CCCN(C(=O)c2ccc3c(=O)n4nc(Nc5ccccc5)sc4nc3c2)C1 (stereo unspecified)	0.75	-0.95
O=C1CCCCc2ccccc21	x	-0.15
N#CC1(C#N)C(c2ccc(F)cc2)C(C(=O)c2ccccc2)C2C=Cc3ccccc3N21 (stereo unspecified)	5.4	-0.5
CCCCCCc1ccc(C(=O)NNC(=O)c2ccc3nsnc3c2)cc1	1.5	x
CNC(=O)Cn1ncc2c3ccccc3n(Cc3cccc(Cl)c3)c2c1=O	2.2	0
O=C(Oc1ccccc1)C1CCN(c2nc3ccccc3[nH]2)CC1	-0.52	-0.3
Cc1ccc(NC(=S)C(C#N)C(=O)Nc2ccccc2C)c(C)c1 (stereo unspecified)	0.2	x
CC(C)(C)C(=O)OCc1nc(-c2ccc(O)c(O)c2)cs1	1.2	-2.1
CC1(C)CC(NCc2ccncc2)c2cccn21 (stereo unspecified)	1.1	x
CNC(=O)CSc1nnc(-c2ccccc2F)n1CCc1ccccc1	-0.4	0.05
Cc1cc(C)c(NC(=O)c2cc(S(=O)(=O)N3CCc4ccccc43)ccc2F)c(C)c1	0.51	0.75
Cc1ccc(NC(=S)Nc2ccc(Cl)c(Cl)c2)cc1C	-0.47	x
Cc1cc(C(=O)Nc2ccc(C)c(F)c2)n[nH]1	0.11	0.6
CC1CC1C(=O)OCC(=O)Nc1ccc(Oc2ccccc2)cc1 (stereo unspecified)	-0.56	-0.5
CCn1c2ccccc2c2nnc(SCC(=O)NCCc3ccc(OC)c(OC)c3)nc21	x	0.45
O=C(CCc1nnc2ccc(N3CCCCC3)nn12)NCCN1CCOCC1	-0.23	-0.25
CC1=C(C(=O)Nc2ccc(F)cc2)SCCO1	0.79	-0.45
O=C(CN1C(=O)c2cccc3cccc1c23)N1CCCC1	x	-0.45
N#CC1=C(SCc2ccccc2)SCNC1=O	-1.6	-0.3
Cc1ccc(SC(C(=O)c2ccccc2)C(=O)c2ccccc2)cc1	-1.4	-0.75
O=S(=O)(NCC1CCCO1)c1ccc(S(=O)(=O)N2CCN(c3ncccn3)CC2)cc1 (stereo unspecified)	0.63	-1.3
CCOC(=O)c1c(CN2CCOCC2)n(C)c2ccc(OS(=O)(=O)c3ccc(C)cc3)cc12	-0.58	x
CN1C(=O)NC2(O)C(=O)c3ccccc3C12O (stereo unspecified)	-0.36	x
Nc1cc(C(F)(F)F)ccc1-n1cnc2ccccc21	0.44	1.1
Cc1noc(C)c1C(=O)NCC1COc2ccccc2O1 (stereo unspecified)	x	0.45
CC1CCc2c(sc3nc(COC(=O)C4=NNC(=O)CC4)[nH]c(=O)c23)C1 (stereo unspecified)	x	-1.7
COc1cc(OC)c(C(=O)NC2CC3CCC2(C)C3(C)C)cc1OC (stereo unspecified)	x	0.45
O=C1CSC(c2ccccc2)N1c1ccc(N2C(=O)CSC2c2ccccc2)cc1 (stereo unspecified)	0.43	x
CC(C)CNC(=O)c1ccc(COc2ccc3ccccc3c2)o1	0.92	-0.6
COc1ccc2nc3c(nc2c1)C(=O)c1ccccc1C3=O	0.045	0.7
N=C1S/C(=C\c2ccc(-c3ccccc3F)o2)C(=O)N1c1nccs1	-1.1	x
COc1ccc(CC2(O)CCC3(CC2)OCCO3)cc1	0.21	0.7
CCOC(=O)c1[nH]c(C)c(C(=O)NC2CCCCCC2)c1C	-0.05	-0.85
CCOC(=O)CSc1nnc(CSc2nc3ccccc3c(=O)[nH]2)n1-c1ccccc1	0.045	1.2
Cc1ccc(OCC(O)Cn2ccnc2C)cc1 (stereo unspecified)	-0.48	1.8
COc1ccc(S(=O)(=O)C2CS(=O)(=O)CC2O)cc1 (stereo unspecified)	0.32	-0.5
Cc1ccc2[nH]c(=O)c(CNCCCO)cc2c1	x	-0.35
Cc1ccc2[nH]c(=O)c(CN(C)C(=O)c3cccc(Cl)c3)cc2c1	44	2.2
COc1ccc(CCNC(=O)c2nnn(-c3cccc(C)c3)c2N)cc1OC	-0.35	-0.9
CC(=O)Nc1cc(C(N)=O)cc(C(N)=O)c1	-0.25	1.1
Cc1nn(C)c(C)c1NC(=O)c1ccc(Cl)cc1	-0.44	-0.6
O=C(O)c1cccnc1-c1ncccc1C(=O)O	-0.065	0.55

Reprinted from the part before: 5 compounds, followed by the next part.
SMILES	Ba CapD inh	AID504770
Cc1ccc2[nH]c(=O)c(CN(C)C(=O)c3cccc(Cl)c3)cc2c1	44	2.2
COc1ccc(CCNC(=O)c2nnn(-c3cccc(C)c3)c2N)cc1OC	-0.35	-0.9
CC(=O)Nc1cc(C(N)=O)cc(C(N)=O)c1	-0.25	1.1
Cc1nn(C)c(C)c1NC(=O)c1ccc(Cl)cc1	-0.44	-0.6
O=C(O)c1cccnc1-c1ncccc1C(=O)O	-0.065	0.55
CCN(CC)Cc1c[nH]c2c(C(=O)OC)cccc12	47	-0.8
Cc1ccc(/C=N/N2C(=O)c3ccccc3C2=O)o1	x	-0.35
O=C(CCN1C(=O)C2C3C=CC(C3)C2C1=O)Oc1cccc2cccnc12 (stereo unspecified)	-0.17	-1.4
CC(=O)N1CCCC1(C(=O)O)c1ccccc1 (stereo unspecified)	0	-0.2
Cc1nc2ccccc2c(=O)n1OC(=O)/C=C/c1ccc(Cl)cc1	-0.12	x
COc1cccc2c1OC1(C)NC(=S)NC2C1C(=O)N(C)C (stereo unspecified)	0.94	-0.85
Cc1cc(C)c2nc(C(F)(F)F)nc(N3CC(C)OC(C)C3)c2c1 (stereo unspecified)	0.72	0.05
COC(=O)c1ccc2c(=O)n(CCc3ccc(S(N)(=O)=O)cc3)c(SCC(=O)Nc3ccc(C)cc3)nc2c1	-0.67	x
C=CCNc1oc(COc2ccccc2F)nc1C#N	2.5	-1.6
CC(C)CNC(=O)CSc1nnc(-c2ccc(Cl)cc2)n1N	x	-0.05
COc1ccc(C(=O)CCC(=O)Nc2cccnc2)c(OC)c1	-0.43	-1.1
CCCNC(=O)c1nnc(Cc2ccccc2OC)o1	-0.03	-0.1
COc1ccc(OC)c(C2CC(c3ccc(OC)c(OC)c3)=NN2S(=O)(=O)c2ccc(C)cc2)c1 (stereo unspecified)	-0.25	x
O=C1C2CC=CCC2C(=O)N1Nc1ccccc1 (stereo unspecified)	x	-0.9
CC(C)(CC(=O)NCc1cccc(C(F)(F)F)c1)n1cccc1	-0.71	x
CN(C)S(=O)(=O)c1cccc2c1N(C(=O)/C=C/c1ccccc1)CC2	0.2	x
